Assay outcomes (PubChem BioAssay)
BJeLR viability: BJeLR cell viability loss; BJeLR (HRASV12) viability, CellTiter-Glo ATP luminescence, 48 h; reference of the scale not given here; inhibition, % (test concentration not listed); actives 0.17% (n = 300,000);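 active means replicate mean above 50%; inconclusive means above 50% but judged a plate artefact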;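 further: 50 nL library stock added to about 25 µL; numbers are from one replicate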
PrP UTR inh: inhibition of PrP 5' UTR reporter expression. cell-based PrP 5' UTR mRNA reporter, plate reader. inhibition, % (no concentration beside the values). actives 0.35% (n = 340,000). AID 488862;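 active means every replicate at 50% or more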;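 further: 0 = median of the neutral control wells; tested in H4 reporter cells; numbers are from one replicate; inactives centre near -14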
ugtP null kill: growth inhibition of S. aureus ugtP deletion strain | S. aureus RN4220 ugtP deletion, OD600 growth, 16 h; some inactives read as strong as hits | growth inhibition, % (no concentration beside the values) | actives 0.54% (n = 330,000);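 active means z-score under -3 and OD600 up to 0.15 on both plates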;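 further: plate controls were untreated wells for no effect and antibiotic for full effect; wells of about 80 µL received 100 nL stock; the first replicate is given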
RN4220 kill: S. aureus RN4220 growth inhibition. actives 0.33% (n = 330,000). inhibition, % (no concentration beside the values). AID 1259311. OD600, 16 h;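 active means z-score of -3 or lower and OD600 up to 0.18 on both plates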;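 further: plate controls were untreated cells for no effect and reference antibiotic for full effect; stock transfer was 100 nL into about 80 µL; one replicate is shown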
Autofluor counter: compound fluorescence in toxin protease inhibitor counterscreen; compound autofluorescence counterscreen, microsphere flow cytometry; active compounds read high; AID 624483; actives 3.1% (n = 360,000); fluorescence intensity (no concentration beside the values);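 active means at least 3 SD above the mean of all compounds, about 16000 in these data; inconclusive means too few beads counted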;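 further: 100 nL of 1 mM stock went into each well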
Mtb hypoxia rep: Mtb hypoxia fluorescent reporter inhibition; M. tuberculosis hypoxia-regulated fluorescent reporter, fluorescence; fluorescence inhibition, % (test concentration not listed); actives 0.1% (n = 300,000); AID 1159583;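 active means 35 to 45% if threefold the growth effect, above 45% if 1.5-fold the growth effect; inactive means the rest, general growth blockers included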;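 further: wells of about 50 µL received 100 nL stock; 0% = vehicle wells and 100% = reference inhibitor wells; whole bacteria with a GFP reporter of the hypoxia response; strong numbers were not always called active; many hits fall short of the cut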
Mtb hypoxia rep growth: further read-out of Mtb hypoxia rep, marked with its call; growth inhibition, %; measured here: M. tuberculosis growth (absorbance);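 0% = vehicle and 100% = reference antibiotic; read after six days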
The depositor's hits bear a star; ? = inconclusive; / = no result given; & = joins results of further samples. The order is random; any-hit rate near 4%.

Every second line gives: RN4220 kill, BJeLR viability, Autofluor counter, Mtb hypoxia rep growth, ugtP null kill, PrP UTR inh, Mtb hypoxia rep
O=C(c1ccccc1)c1cccc[n+]1[O-]
    -0.1, -9, 3860, -4, 1, -3, 6
COc1ccc(C)cc1S(=O)(=O)Nc1ccc2c(c1)OCCO2
    4.3, -2, 3592, -2, 4, -13, -1
O=C(CSc1cccc2cccnc12)NN=Cc1cccc(O)c1
    5.8, /, /, -5, 2, /, 7
CCC1=NN(C(=O)Cc2ccc(OC)cc2)C(O)(C(F)(F)F)C1 (stereo not drawn)
    0.8, 1, 4394, 9, -3, 0, -1
COc1cccc(CN(C)Cc2cc(=O)oc3cc(O)c(Cl)cc23)c1
    9.6, -10, 3144, 5, 4, -10, 11
C=CCn1c(COc2ccccc2F)nnc1SCC(=O)Nc1cc2oc3ccccc3c2cc1OC
    -1.1, -4, 2109, /, 4, 6, /
N#Cc1cc2c(ccc3ccccc32)oc1=O
    4.6, -6, 2599, 5, -1, -11, 7
COc1cc(Cl)ccc1OCc1cc(C(=O)N(C)CC2CCCCO2)no1 (stereo not drawn)
    2.6, 14, 6280, 2, 9, 6, 10
Cc1ccc(S(=O)(=O)NCC(=O)OCC(=O)Nc2ccc(C)c(S(=O)(=O)N3CCOCC3)c2)cc1
    4.0, /, 5172, -3, 3, 4, 2
CCc1ccc(NC(=O)N(CCCN2CCOCC2)C(C)c2cc3cccc(OC)c3o2)cc1 (stereo not drawn)
    -4.7, 7, 3298, 9, -12, -8, 2
COC(=O)c1ccc2[nH]cc(CCO)c2c1
    2.5, -2, 4001, 0, 1, 17, 1
O=C(CSc1nnc(-c2ccco2)o1)NC(=O)Cc1ccccc1
    0.7, -2, 3389, 3, 7, -36, 8
COc1ccc(NC(=O)N2CCCC(c3nc(-c4ccc(OC)cc4)no3)C2)cc1 (stereo not drawn)
    1.0, -6, 2742, -3, 0, -58, 9
Cc1ccc(CNC(=O)CNC(=S)N(Cc2ccccc2)Cc2ccccc2F)cc1
    6.9, 5, 4306, 8, 17, -3, 10
Cc1ccc(C(=O)NC2CCCCCC2)o1
    4.9, -4, 8220, /, -9, -24, /
O=[N+]([O-])c1cc(C=NO)ccc1Oc1ccccc1Cl
    4.1, /, /, -1, -12, /, 14
Cc1cc(C)c(C(=O)Cn2cnc3cc([N+](=O)[O-])ccc3c2=O)cc1C
    9.2, 9, 4582, 3, 7, -24, 9
COc1cc(OC)c(NC(=O)c2cccc(F)c2)cc1Cl
    5.7, 1, 2554, 6, -6, -33, 9
OCC[C@@H]1C[C@H](O)[C@@H](O)[C@]2(OCc3ccccc32)O1
    /, -9, 3939, /, /, -46, /
Cc1cc(NC(=O)CSCC(=O)Nc2ccccc2N2CCCCC2)no1
    4.8, 0, ?, -7, -2, -8, -8
CC(C)C1NC(=O)c2cc([N+](=O)[O-])cc(I)c2NCCCC(C(N)=O)NC(=O)C(CO)NC1=O (stereo not drawn)
    0.0, /, /, 2, -8, /, -8
COc1ccc2cc(C(=O)NCc3ccccc3CN3CCCC3)ccc2c1
    -1.7, /, 5344, 4, -3, -3, 12
O=C(CN1CCCC1c1ccc2c(c1)OCCO2)NC(=O)Nc1ccccc1 (stereo not drawn)
    -1.8, /, 6600, 5, 0, -5, -9
O=C(CSc1ccc([N+](=O)[O-])cn1)Nc1ccc(N2CCOCC2)cc1
    4.0, -3, 4827, 4, 6, -10, 9
O=C(COC(=O)c1ccc(O)cc1)Nc1cccc(S(=O)(=O)NC2=NCCCCC2)c1
    -0.2, -4, 4336, -3, -3, -23, -3
CCNC1(C#N)CCN(Cc2ccccc2)CC1
    1.2, /, 3342, 6, 5, -20, 11
Cc1cccc2sc(NC(=O)c3ccc(Cl)s3)nc12
    -4.9, 4, 5680, /, 5, -51, /
COC(=O)c1ccc(N2CC3CNC(=O)C2(C(=O)OC)N3C)cc1 (stereo not drawn)
    8.0&-13, /, 3768&3961, 6&5, 1&-3, -3&-15, 12&10
Cc1ccc(OCC(=O)Nc2ccc(S(=O)(=O)Nc3ccccn3)cc2)c(C)c1
    2.4, -7, 2321, 6, 0, -10, 6
Cc1nn(CCc2n[nH]c(=S)n2C)c(C)c1Br
    0.9, -2, 15320, 0, 5, -3, 3
CC(N)=C(C#N)C(=O)CSc1ccccc1F
    5.4, /, /, 16, -3, /, 8
CCN(CC)S(=O)(=O)c1cccc(-c2n[nH]c(=S)n2Cc2ccccc2)c1
    12, -8, 4434, -5, 14, -10, 7
N=c1c(C(=O)NC2CCCCC2)cc2c(=O)n3ccccc3nc2n1CC1CCCO1 (stereo not drawn)
    -0.9, -1, 6433, -7, -6, -10, -17
O=C(Nc1nc2ccccc2[nH]1)c1cccc(Cl)c1
    4.9, -9, /, -5, -5, -69, -5
Cc1ccc(-c2cc(C(=O)Nc3nccs3)c3ccccc3n2)c(C)c1
    1.5, -4, 2720, /, 6, -6, /
COc1cc(OC)cc(C(=O)Nc2ccc([N+](=O)[O-])cn2)c1
    7.9, 7, 2037, 11, -17, -35, -1
CCCN1C2CCCC1CC(NC(=O)c1ccc(C(C)(C)C)cc1)C2 (stereo not drawn)
    1.9, 11, 3098, -5, 10, -14, 8
COc1ccccc1-c1nc(NC(C)=O)n[nH]1
    2.4, -3, /, 5, 0, /, 7
O=C(Cn1c(Cc2ccccc2)nc2ccccc21)NCc1ccc2c(c1)OCO2
    /, 26, 2231, /, /, -15, /
O=C(COc1ccc(Cl)cc1)NCCN1CCCCC1
    14, 1, 4889, 9, 3, -8, 5
CC1CN(c2nc3c(c(=O)n(C)c(=O)n3C)n2Cc2c(F)cccc2Cl)CC(C)O1 (stereo not drawn)
    4.5, 5, 18917*, 9, -7, -18, 8
COC(=O)[C@@H](NC(=O)N1CCC(C)CC1)C(C)C
    1.6, -10, 5603, 1, 5, -25, 13
COc1ccccc1Nc1nc(C)cs1
    5.6&1.0, -4&-8, 4267&3327, 1, 6&3, -24&-33, 6
Cc1ccccc1OCC(=O)Nc1nnc(COc2ccccc2)s1
    4.2, -7, 5833, 10, 2, -14, 3
CCCNC(=O)c1ccc(COc2ccc(Cl)cc2)o1
    4.5, 0, 4261, -5, 10, -18, -4
O=C(CN1C(=O)NC(c2ccccc2)(c2ccccc2)C1=O)NCc1ccc(F)cc1
    4.5, /, 3708, 5, -4, -15, 9
COc1cccc(C(=O)NC(=S)Nc2nnn(C)n2)c1
    6.0, 2, 2542, /, 8, -10, /
Cc1ccc(/C=N/NC(=O)Cc2ccc(O)cc2)s1
    /, 4, 4874, /, /, 1, /
COc1cc(/C=N/NC(N)=O)cc(Br)c1OCc1ccc(C)cc1
    /, -5, 7278, /, /, -6, /
COc1ccc(Cc2cnc(N)s2)cc1
    0.8, 4, 4580, -5, 9, 77*, 8
COc1ccc(CNC(=O)CCCn2nc(C)n3c(cc4sccc43)c2=O)cc1
    -0.8, -2, 4399, -2, 10, -15, 2
CSc1nc(Cc2ccc(Cl)cc2)nc2ccccc12
    2.9, 11, 5428, 12, 31, -11, 6
Cc1ccc(OCCNC(=O)/C=C/c2ccc([N+](=O)[O-])cc2)cc1C
    -7.4, -5, 4283, -4, 34, -8, 4
Clc1c(CSc2nc3ccccc3o2)nc2sccn12
    11, -9, 10777, 9, 5, -53, 8
CN(C)c1ccc(/C=C(/NC(=O)c2ccccc2)C(=O)NCCN2CCOCC2)cc1
    3.9, -17, 5684, 3, 5, -12, 7
CC(=O)Nc1sc2c(c1C#N)CCCCC2
    0.1, /, 23128*, 5, -11, -16, 1
NC(=O)CCC(NC(=S)Nc1ccccc1)C(=O)O (stereo not drawn)
    4.4, 1, 4482, 2, 8, -21, -6
COc1ccccc1/C=C/C(=O)OCCCN(C)C
    2.8, 4, 2626, -1, 5, -13, 9
Cc1nc(NC(=O)COc2ccccc2)sc1C(=O)Nc1cccc(Cl)c1
    0.2, 6, 24209*, 11, -22, 11, 0
Cc1cccc(CCNC(=O)CCc2nnc(CCc3ccccc3)o2)n1
    5.6, -2, 1965, 5, 4, -21, 8

3 structures out of the list, sorted by number of heavy atoms, lowest first.
Every second line gives: RN4220 kill, BJeLR viability, Autofluor counter, Mtb hypoxia rep growth, ugtP null kill, PrP UTR inh, Mtb hypoxia rep
CC(=O)Nc1sc2c(c1C#N)CCCCC2
    0.1, /, 23128*, 5, -11, -16, 1
NC(=O)CCC(NC(=S)Nc1ccccc1)C(=O)O (stereo not drawn)
    4.4, 1, 4482, 2, 8, -21, -6
COc1cc(/C=N/NC(N)=O)cc(Br)c1OCc1ccc(C)cc1
    /, -5, 7278, /, /, -6, /

(further entries)
Every second line gives: RN4220 kill, BJeLR viability, Autofluor counter, Mtb hypoxia rep growth, ugtP null kill, PrP UTR inh, Mtb hypoxia rep
O=C(CSCc1cccc(Br)c1)N=Nc1c(O)[nH]c2ccccc12
    8.2, 8, 6960, 8, 3, -20, 10
O=C(CCN1CCOCC1)N1CCc2c([nH]c3ccccc23)C1c1cccc(Cl)c1 (stereo not drawn)
    7.9, 11, 2210, 1, -14, -16, -10
COc1ccc(/C=C/C(=O)C2CC2)cc1Cn1nc(C)c([N+](=O)[O-])c1C
    4.2, 2, 2156, 14, 2, -13, 17
Cc1oc(-c2ccc(Cl)cc2)nc1CN1CCCN(C(=O)c2ccco2)CC1
    3.2, 5, 6490, 3, 4, -3, 8
CC(=O)Nc1ccc(C(=O)NNC(=O)c2ccccc2-n2cccc2)cc1
    0.4, /, ?, 5, 3, 5, 7
Cc1ccc(Cn2ccc(NC(=O)c3nn(C)cc3[N+](=O)[O-])n2)cc1
    3.0, -4, 2297, 4, 3, -13, -1
Cn1c(CNC(=O)c2cccs2)nnc1SCC(=O)Nc1ccccc1
    -4.4, 5, 2660, 10, 1, -35, -3
COc1cc(/C=N/NC(=O)C(N)=O)ccc1OCC(=O)N1C(C)CCCC1C (stereo not drawn)
    /, 0, 4721, /, /, 7, /
CCOc1ccc(N(CC(=O)NN=Cc2cc(Br)c(C)o2)S(C)(=O)=O)cc1
    2.1, /, /, 8, 4, /, 12
Cc1ccc(Nc2nc(N)nc(CSc3nccn3C)n2)cc1
    2.9, -11, 4086, /, 1, -86, /
O=C(/C=C/c1ccc(Cl)c([N+](=O)[O-])c1)Nc1cccnc1
    -3.4, 3, 4126, /, 0, -36, /
CCc1nn(CC(=O)N2CCN(C)CC2)c(=O)c2cccn12
    -4.5, -4, 5701, 8, 6, -5, 10
CC1CN(CCOc2ccccc2[N+](=O)[O-])CC(C)O1 (stereo not drawn)
    11, 0, 3275, 10, 4, -3, 6
N#CC1=C(N)N=C(SCc2cccc3ccccc23)C(C(N)=O)C12CCCCC2 (stereo not drawn)
    -6.4, -1, 5230, -3, -7, -15, -4
CCCc1nnc(NC(=O)C2CCCO2)s1 (stereo not drawn)
    3.2, 8, 10792, 5, 0, -15, -10
Cc1ccc(/C=N/N=C2/NC(=O)C(CC(=O)N3CCOCC3)S2)cc1 (stereo not drawn)
    /, -8, 6106, /, /, 2, /
COc1ccc(OCc2nnc(SC(C)C(=O)Nc3nccs3)n2-c2ccccc2)cc1 (stereo not drawn)
    0.0, -5, 11172, 9, -10, 0, -3
Cc1c(C=NO)c2ccccc2n1C
    3.3, /, /, 22, 0, /, 5
COc1cc(OC)c(OC)cc1/C=N/Nc1ccc(Cl)nn1
    /, 8, 3581, /, /, -20, /
Cc1ccc(-c2csc3ncnc(Nc4ccc(N5CCOCC5)cc4)c23)cc1
    2.9, 0, 2733, 10, -14, -11, 3
O=C(CNC(=O)c1ccccc1Br)NCC(c1ccco1)N1CCCCC1 (stereo not drawn)
    1.3, /, 4606, 6, 3, -10, 0
Fc1ccccc1COc1ccc(C(=S)N2CCCC2)cc1
    3.8, -8, 4281, -2, 9, -55, 0
CC(=O)NNC(=O)c1nc(-c2ccccc2)c(C)o1
    4.2, -13, 6767, 4, 9, -15, -4
O=C(O)c1ccccc1C(=O)Nc1cc(C(F)(F)F)ccc1N1CCCC1
    -3.4, -8, 4138, -4, 7, -6, 3
CC(C)(O)C(=O)NN(C(=O)c1ccccc1)c1ccc2ccccc2c1
    0.8, 7, 2888, /, 10, 30, /
CCn1c(=O)c(C(=O)Nc2ncccc2C)c(O)c2ccccc21
    4.1, 1, 2551, 5, -12, -12, -2
CC(CC(=O)NC1CCCC1)=NNC(=O)Cc1csc(N)n1
    1.9, /, /, 6, 1, /, 4
CCCNC(=O)Cn1nc([N+](=O)[O-])c([N+](=O)[O-])c1C
    -3.2, 6, 2667, 2, 12, -20, 3
COc1ccc(S(=O)(=O)N(C)c2ccc(C(=O)Nc3cccnc3)cc2)cc1
    2.6, -12, 7272, 5, 3, -11, 9
